Assay outcomes as filed in PubChem.
PrP UTR inh: suppresses PrP 5' UTR mRNA reporter expression | cell-based PrP 5' UTR mRNA reporter, plate reader | inhibition, % (no concentration beside the values) | 0.35% of 340,000 active;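 active = every replicate at 50% or more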;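 also: 0 = median of the neutral control wells; tested in H4 reporter cells; numbers are from one replicate; inactives centre near -14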
Sa RN4220 lethal: S. aureus RN4220 growth inhibition. OD600, 16 h. inhibition, % (test concentration not listed). 0.33% of 330,000 active. AID 1259311;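 active = z-score of -3 or lower and OD600 up to 0.18 on both plates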;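 also: plate controls were untreated cells for no effect and reference antibiotic for full effect; stock transfer was 100 nL into about 80 µL; one replicate is shown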
BJeLR lethal: kills HRASV12-expressing BJeLR cells | inhibition, % (concentration not given with the values) | BJeLR (HRASV12) viability, CellTiter-Glo ATP luminescence, 48 h; reference of the scale not given here | 0.17% of 300,000 active;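 active = replicate mean above 50%; inconclusive = above 50% but judged a plate artefact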;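 also: 50 nL library stock added to about 25 µL; numbers are from one replicate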
Autofluor counter: counter-screen for toxin protease inhibitors: compound fluorescence; compound autofluorescence counterscreen, microsphere flow cytometry; hits give high values; fluorescence intensity (no concentration beside the values); 3.1% of 360,000 active;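 active = at least 3 SD above the mean of all compounds, about 16000 in these data; inconclusive = too few beads counted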;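 also: 100 nL of 1 mM stock went into each well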
Mtb hypoxia rep: reduces hypoxia-regulated biosensor signal in M. tuberculosis. fluorescence inhibition, % (no concentration beside the values). M. tuberculosis hypoxia-regulated fluorescent reporter, fluorescence. 0.1% of 300,000 active;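 active = 35 to 45% if threefold the growth effect, above 45% if 1.5-fold the growth effect; inactive = the rest, general growth blockers included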;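 also: wells of about 50 µL received 100 nL stock; 0% = vehicle wells and 100% = reference inhibitor wells; whole bacteria with a GFP reporter of the hypoxia response; strong numbers were not always called active; many hits fall short of the cut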
ugtP null kill: compounds lethal to S. aureus RN4220 ugtP deletion mutant; OD600 growth, 16 h; some inactives read as strong as hits; growth inhibition, % (no concentration beside the values); 0.54% of 330,000 active;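 active = z-score under -3 and OD600 up to 0.15 on both plates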;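 also: plate controls were untreated wells for no effect and antibiotic for full effect; wells of about 80 µL received 100 nL stock; the first replicate is given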
Mtb hypoxia rep growth: second read-out of Mtb hypoxia rep, no call of its own (marks repeat the call); growth inhibition, %; measured here: M. tuberculosis growth (absorbance);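 0% = vehicle and 100% = reference antibiotic; read after six days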
* marks the source's active call; other numbers are inactive results; ? = inconclusive; . = not tested or not shown.

Order of results – PrP UTR inh | Sa RN4220 lethal | BJeLR lethal | Autofluor counter | Mtb hypoxia rep | Mtb hypoxia rep growth | ugtP null kill
[1] O=C(NN=C1CCCCc2ccccc21)c1ccccn1
  . | 5.4 | . | . | . | . | 8
[2] Clc1ccc(-n2cccc2)cn1
  -25 | 2.6 | 5 | 2850 | 0 | -8 | 5
[3] CC(C)c1ccccc1-n1c(SCC(=O)N2CCc3ccccc3C2)nc2ccccc2c1=O
  -16 | -12 | 9 | 2260 | -5 | 2 | 18
[4] CC(C)COC(=S)Nc1ccccc1
  -55 | 6.2 | -8 | 3355 | 11 | 12 | 3
[5] Cc1ccc(C(=O)COC(=O)CN2C(=O)C3C4C=CC(C4)C3C2=O)cc1C (centres undefined)
  -2 | 1.1 | -6 | 5216 | -2 | 0 | 2
[6] COC(=O)C(Cc1ccccc1)NC(=O)c1cc(S(=O)(=O)N(C)C)ccc1Cl (centres undefined)
  -11 | 3.4 | -8 | 4191 | 16 | 13 | -68
[7] COc1ccc(OC)c(NC(=O)C2C3C=CC(C3)C2C(=O)NCc2cccnc2)c1 (centres undefined)
  -11 | 2.3 | 0 | 4047 | 4 | 5 | 4
[8] S=C(NCc1ccccc1)Nc1ccc(Oc2ccccc2)cc1
  -31 | 5.2 | -7 | . | 6 | 4 | -13
[9] COc1ccc(C(=O)C2CCCN(C(=O)Cn3nc(C)cc3C)C2)cc1F (centres undefined)
  -23 | 0.9 | 8 | 6148 | 7 | 8 | 9
[10] CC1CCCC(NC(=O)CN(C)S(=O)(=O)c2cnc[nH]2)C1C (centres undefined)
  -18 | 0.8 | 2 | 4438 | -1 | 6 | 5
[11] Cc1ccccc1NC(=O)Nc1nc2ccc(S(C)(=O)=O)cc2s1
  -89 | -0.5 | -6 | 7142 | 4 | -1 | 9
[12] Cc1cccc(CCN=c2c([N+](=O)[O-])nn(-c3ccccc3)n2O)c1
  11 | 9.4 | -4 | 2191 | 17 | 9 | 22
[13] COc1ccc(NC(=O)[C@@H](NC(=O)N2C[C@H]3C[C@@H](C2)c2cccc(=O)n2C3)C(C)C)cc1
  -21 | 1.7 | -5 | 5602 | . | . | 2
[14] O=[N+]([O-])c1cc(C(F)(F)F)ccc1NN=Cc1cc2ccccc2nc1Cl
  . | 7.5 | . | . | 11 | 6 | 33
[15] Cc1cccc(C(=O)NN=Cc2ccncc2)c1
  . | -0.2 | . | . | 7 | 6 | 5
[16] Cc1ccc(C(=O)c2sc3c(c2N)c(=O)[nH]c(=O)n3CCc2ccccc2)cc1
  -24 | -0.7 | -3 | 3054 | -8 | -8 | -9
[17] CCCCCC(=O)NN1C(=S)N(c2ccc(OC)cc2)C(=O)C1CC(=O)Nc1ccccc1 (centres undefined)
  . | 4.0 | -17 | 4837 | 12 | 10 | 5
[18] C1CC2NCCC3NCCC(N1)N32 (centres undefined)
  -17 | 0.1 | -7 | 4078 | 11 | -3 | 3
[19] CC1CC(C)CN(C(=O)COC(=O)c2cncc(Br)c2)C1 (centres undefined)
  -7 | 3.8 | . | 2912 | 6 | -2 | 6
[20] COc1ccc(NC(=O)COc2nsnc2N2CCCCC2)cc1
  -8 | 3.2 | 0 | 8017 | 0 | 4 | 4

Screen by screen, quoted from above.
Nos. 10 to 13 in Autofluor counter, in turn: 4438, 7142, 2191, 5602
Nos. 10 to 13 in BJeLR lethal, in turn: 2, -6, -4, -5

Later entries.
Order of results – PrP UTR inh | Sa RN4220 lethal | BJeLR lethal | Autofluor counter | Mtb hypoxia rep | Mtb hypoxia rep growth | ugtP null kill
[21] COc1cc(C(=O)OCC(=O)NC2CCS(=O)(=O)C2)ccc1OCc1c(C)noc1C (centres undefined)
  -34 | . | 5 | 2484 | . | . | .
[22] Cc1cnc(NC(=O)C(C)N2CCN(C)CC2)s1 (centres undefined)
  -25 | 1.8 | 1 | 4241 | 6 | 8 | 3
[23] CC1CC(C)CN(C(=O)c2cc(S(=O)(=O)N3CCCCC3)ccc2Cl)C1 (centres undefined)
  -8 | . | 2 | ? | . | . | .
[24] CC(C)CNC(=O)CC(c1ccccc1)c1ccccc1
  -10 | 2.0 | 6 | 4026 | 2 | 1 | 2
[25] COc1ccccc1N1CCN(C(=O)CNC(=O)Cn2cnc3sc(C)c(C)c3c2=O)CC1
  7 | -2.6 | -3 | 4380 | -13 | 2 | -7
[26] COc1cccc(Oc2c(C)oc3c(CN4CCCC4)c(O)ccc3c2=O)c1
  8 | 2.4 | -3 | 3718 | -3 | -2 | 0
[27] O=C(NCc1ccco1)c1cc(-c2ccccc2)nn1CC1CC(c2cccnc2)=NO1 (centres undefined)
  -18 | 2.0 | -3 | 4155 | -8 | 7 | 1
[28] NC(=O)c1ccc(N2CCOCC2)nc1
  -8 | 2.3 | 0 | 2599 | -2 | 11 | 8
[29] CC1=NN(c2ccc(C(F)(F)F)cn2)C(=O)C1
  -18 | 15 | 11 | 2029 | 3 | 6 | 2
[30] C=CCNC(=O)c1cc2cccc(OC)c2oc1=O
  -26 | 7.1 | 1 | 4304 | 0 | 14 | 10
[31] COc1ccc(-n2nnc3c(SCC(=O)N4CCCc5ccccc54)ncnc32)cc1
  -4 | 0.2 | -12 | 4243 | -12 | 6 | 13
[32] COc1ccc(OC)c(C(O)=CC(=O)C(=O)Nc2cc(C)cc(C)c2)c1
  . | 6.5 | . | . | 5 | 6 | -2
[33] COc1ccc(-c2cccc(-c3nc4ccc(Cl)cn4c3NC3CCCCC3)c2)cc1
  -14 | -4.2 | . | 4333 | 4 | 4 | 5
[34] COC(=O)c1ccc2[nH]c3cccc(C(=Cc4ccccc4)c4ccccc4)c3c2c1
  . | 34 | . | . | 12 | 8 | 30
[35] Cc1cccc(OCC(=O)NCCN2CCOCC2)c1
  -1 | 1.7 | 7 | 20366* | 8 | 10 | 0
[36] COc1ccc(C2C(C#N)=C(N)Oc3cc(O)ccc32)cc1OC (centres undefined)
  -5 | 8.3 | 4 | 2469 | . | . | 15
[37] CCCc1nc2ccccc2c(C(=O)N(CC)CC(=O)NCc2cccs2)c1CC
  -5 | 1.0 | . | 5500 | 9 | -3 | 3
[38] CCCCc1n[nH]c(=S)n1Cc1ccc(C)cc1
  6 | 5.2 | 0 | 1936 | -6 | -7 | 5
[39] CCC(c1nnc(SCC(=O)Nc2cccc(S(N)(=O)=O)c2)n1-c1ccc(OC)cc1)N(C)C (centres undefined)
  -17 | 3.4 | -20 | 3503 | 0 | 9 | 4
[40] Cc1ccc(CN(Cc2ccco2)C(=O)c2ccco2)cc1
  -13 | . | 4 | 4371 | . | . | .
[41] O=C(Nc1cccnc1Cl)c1cccc(F)c1
  . | 13 | 10 | . | 3 | 12 | 5
[42] Cc1cc(C)n(CCC(=O)Nc2cccc(F)c2)n1
  . | 2.7 | -2 | 3287 | 3 | 7 | 10
[43] COc1cccc(C2(O)CCN(C(=O)C3CCC3)CC2)c1
  -5 | 1.5 | 33 | 3053 | . | . | -3
[44] CC(=O)N1CC=CC1(C)C(=O)O (centres undefined)
  -25 | 8.2 | -11 | 2959 | 13 | 11 | -3
[45] CC(NC(=O)C1CCN(C(=O)c2cccs2)CC1)c1ccc(S(N)(=O)=O)cc1 (centres undefined)
  -11 | 0.9 | . | 8896 | 4 | -9 | 2
[46] COc1ccccc1NC(=O)c1ccc(NC(=O)CSc2n[nH]c(N)n2)cc1
  -35 | . | -6 | 2719 | . | . | .
[47] Cc1ccc(C(=O)NCC(=O)OCC(=O)NC2CCCCCCC2)cc1
  1 | 0.6 | -2 | 5856 | 3 | 0 | -1
[48] Cc1ccc(OCC(=O)N2N=C(c3ccncc3)CC2(O)C(F)(F)F)cc1C (centres undefined)
  -11 | 6.4 | 4 | 3387 | -7 | 4 | -4
[49] CC(=NNC(=O)CNC(=O)c1cccs1)c1ccc(Cl)cc1
  . | -2.4 | . | . | -5 | -4 | -1
[50] C=CCn1c(SCC(=O)N(C)C2CCS(=O)(=O)C2)nnc1-c1ccncc1 (centres undefined)
  -6 | -8.3 | 2 | 2490 | 5 | -2 | 5
[51] C=CCOc1ccc(NC(=O)C(=O)NCCCn2ccnc2)cc1
  -3 | 1.4 | -1 | 19499* | 1 | 4 | 3
[52] CC(Sc1ncc(C#N)c(N)n1)C(=O)Nc1ccccc1 (centres undefined)
  -6 | -6.5 | -4 | 9464 | 4 | 6 | 4
[53] CCN(CC)C(=O)C1CCCN(c2ccc([N+](=O)[O-])cc2C=NNC(=O)c2ccccc2)C1 (centres undefined)
  . | 4.8 | . | . | -3 | -6 | 9
[54] Cc1cc(=O)[nH]c(SCC(=O)c2ccc(C)c(C)c2)n1
  -14 | -7.9 | -7 | 2561 | 3 | 0 | -3
[55] Cc1ccc(NC(=O)C2CC2)cc1S(=O)(=O)N1CCOCC1
  -30 | -1.9 | . | 3833 | -11 | 8 | -3
[56] CCOc1ccc(C2=[N+]([O-])C(C)(C)N(O)C2(C)C)cc1
  -19 | -2.6 | -1 | 3850 | . | . | 10
[57] CC(C)CC1(C)NC(=O)N(Cc2cc([N+](=O)[O-])cc3c2OCOC3)C1=O (centres undefined)
  -4 | 6.8 | 0 | 3663 | 11 | -3 | 8
[58] O=C(Nc1ccc(O)c(-c2nc3ccccc3o2)c1)C1(c2ccccc2)CCCC1
  -23 | 2.7 | -5 | 15403 | 6 | 1 | 7
[59] CC1CCCCN1S(=O)(=O)c1ccc(C(=O)Nc2nnc(-c3ccccn3)o2)cc1 (centres undefined)
  -21 | 11 | -12 | 2426 | 8 | 1 | 1
[60] O=C(CSc1ccc(-c2ccco2)nn1)NCc1ccccc1
  -11 | 3.0 | -3 | 11046 | -1 | -9 | 10
[61] CCCc1cc(C(=O)Nc2ccccc2SC)no1
  -37 | -5.5 | -2 | 6355 | 2 | 5 | 0
[62] O=C1CN(C(=O)COC(=O)c2cccc(S(=O)(=O)NCc3ccccc3)c2)c2ccccc2N1
  -15 | 1.0 | 14 | 3013 | 7 | 10 | -7
[63] CCOC(=O)c1nc2sc(C)c(C)c2c(=O)[nH]1
  -16 | 8.2 | 1 | 10063 | 4 | 11 | -3
[64] O=C(Cn1nc(C(F)F)cc1C(F)F)NNC(=S)Nc1ccc(Cl)cc1
  -9 | 0.1 | 5 | 23616* | 12 | 7 | -4
[65] CC(SC1=Nc2ccccc2C2CC=NN12)C(=O)NC1(C#N)CCCCC1 (centres undefined)
  -17 | -1.0 | 16 | 4109 | 8 | 16 | -8
[66] CCOC(=O)C1(Cc2ccc(OC)cc2)CCN(C(=O)c2cc(C)on2)CC1
  -12 | 1.5 | 4 | 5486 | -4 | -2 | -5
[67] CCn1ncc(C2=NOC(C(=O)NCc3ccc(OC)cc3)C2)c1C (centres undefined)
  -16 | 2.8 | 3 | 9292 | 2 | 7 | -3
[68] O=C(CN1C(=O)NC2(CCCCC2)C1=O)N1CCN(C(=O)c2cccs2)CC1
  -16 | 8.8 | . | . | 15 | 6 | 4
[69] O=C(Nc1ccc(N2CCOCC2)cc1)Nc1ccc2nsnc2c1
  -17 | 3.4 | 13 | 3502 | 0 | 15 | 7
[70] COc1ccc(NC(=O)CSc2nnc(-c3ccccc3)n2N)cc1
  -1 | 10 | -17 | 3565 | . | . | 9
[71] COc1ccc(-n2c(C)nn(CC3CC3)c2=O)cc1
  -8 | 0.9 | 9 | 3891 | -1 | 8 | 10
[72] Cc1[nH]c(=O)[nH]c(=O)c1S(=O)(=O)N1CCCC(C(=O)NCc2ccco2)C1 (centres undefined)
  -3 | 3.0 | -8 | 2603 | . | . | 0
[73] CN(C(=O)CC(=O)Nc1ccc(Cl)c(Cl)c1)c1ccccc1
  -7 | 8.7 | 3 | 4736 | 4 | 14 | -2
[74] COc1cccc(OCc2cc(C(=O)N3C[C@H]4C[C@@H](C3)c3cccc(=O)n3C4)no2)c1
  -74 | 9.1 | 6 | 4343 | 9 | 6 | 13
[75] CC(=O)c1ccc(S(=O)(=O)Nc2ccc(-c3cn4c(n3)SCC4)cc2)cc1
  -7 | 4.6 | 0 | 2674 | 5 | 3 | 6
[76] COc1ccccc1N1CCN(Cc2ccccc2)CC1
  -16 | 2.4 | 8 | 3689 | 0 | -1 | 4

Full records as entered above. Values in the order: PrP UTR inh, Sa RN4220 lethal, BJeLR lethal, Autofluor counter, Mtb hypoxia rep, Mtb hypoxia rep growth, ugtP null kill
COc1ccc(NC(=O)CSc2nnc(-c3ccccc3)n2N)cc1 is entered as -1, 10, -17, 3565, ., ., 9
O=C(Nc1ccc(N2CCOCC2)cc1)Nc1ccc2nsnc2c1 is entered as -17, 3.4, 13, 3502, 0, 15, 7
Cc1[nH]c(=O)[nH]c(=O)c1S(=O)(=O)N1CCCC(C(=O)NCc2ccco2)C1 (centres undefined) is entered as -3, 3.0, -8, 2603, ., ., 0
